STAT3 SMM = STAT3 (human) binding. P40763. Small molecule microarray, His-STAT3 binding, anti-His fluorescence. calls only. actives 0.2% (n = 17,000). AID 624138;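 active = compounds whose four printed spots each show fluorescence over background unusually high for their array block, chance value under 7%; compounds were printed on slides so no solution concentration is given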;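 note: about 2 pmol printed per array spot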
Target sequence (P40763 whole entry, looked up): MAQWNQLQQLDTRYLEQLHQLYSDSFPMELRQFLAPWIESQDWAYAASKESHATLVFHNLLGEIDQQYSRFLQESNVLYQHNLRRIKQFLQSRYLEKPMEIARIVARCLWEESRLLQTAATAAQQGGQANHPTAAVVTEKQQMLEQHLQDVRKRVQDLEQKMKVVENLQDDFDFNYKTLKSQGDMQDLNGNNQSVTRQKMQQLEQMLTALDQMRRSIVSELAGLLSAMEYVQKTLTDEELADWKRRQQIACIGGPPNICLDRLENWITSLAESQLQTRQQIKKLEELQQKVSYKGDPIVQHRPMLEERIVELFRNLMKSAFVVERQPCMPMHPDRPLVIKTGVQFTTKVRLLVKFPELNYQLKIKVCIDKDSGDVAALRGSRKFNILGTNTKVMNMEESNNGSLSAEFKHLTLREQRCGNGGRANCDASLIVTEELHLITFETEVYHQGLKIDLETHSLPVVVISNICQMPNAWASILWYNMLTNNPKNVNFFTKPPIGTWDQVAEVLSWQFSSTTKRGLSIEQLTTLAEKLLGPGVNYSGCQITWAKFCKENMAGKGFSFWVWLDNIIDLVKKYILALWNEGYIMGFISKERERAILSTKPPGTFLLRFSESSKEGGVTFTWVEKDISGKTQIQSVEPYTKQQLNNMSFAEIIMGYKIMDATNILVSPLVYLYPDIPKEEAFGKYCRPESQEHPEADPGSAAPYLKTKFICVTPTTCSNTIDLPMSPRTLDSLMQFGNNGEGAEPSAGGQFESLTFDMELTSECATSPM
mut p53 SMM = binds human mutant p53 on microarray; calls only; AID 624136; actives 0.4% (n = 17,000); small molecule microarray binding, anti-GST fluorescence;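 active = compounds whose four printed spots each glow above background more than chance allows, each with a p-value under 7%; compounds were printed on slides so no solution concentration is given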;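 note: about 2 pmol printed per array spot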
c-Myc SMM = binds human c-Myc on microarray. AID 624141. actives 1.5% (n = 17,000). small molecule microarray, His-c-Myc binding, anti-His fluorescence. calls only. P01106;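 active = spot fluorescence over background with P-value below 7% in all four replicate spots, showing protein binding; compounds were printed on slides so no solution concentration is given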;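 note: score is binary with 100 for all four spots passing and 0 otherwise; about 2 pmol printed per array spot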
ID4 binder = binders of human ID4 protein; P47928; small molecule microarray, Flag-ID4 binding, fluorescence F/B; calls only; actives 1.2% (n = 31,000);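 active = spot signal over background at p below 0.07 in all four prints; compounds were printed on slides so no solution concentration is given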;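 note: a binder raises fluorescence above local background on the spot; about 2 pmol printed per array spot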
Target sequence (P47928 whole entry, looked up): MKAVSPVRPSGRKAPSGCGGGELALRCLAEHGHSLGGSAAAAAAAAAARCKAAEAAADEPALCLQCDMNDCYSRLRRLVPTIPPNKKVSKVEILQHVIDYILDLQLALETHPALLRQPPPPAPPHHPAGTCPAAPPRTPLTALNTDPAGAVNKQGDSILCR
Calls only; i = inactive; x = no result given; + = active, no number. This is a subset; count on the stated rates, not on these rows.

The first 6 compounds as a preview:
SMILES	STAT3 SMM	mut p53 SMM	c-Myc SMM	ID4 binder
CCCCC/C=C\C/C=C\C/C=C\C/C=C\CCCC(=O)NCCO	i	i	i	i
COc1cc(OC)c(OC)cc1CNC(C)C(O)c1ccccc1 (stereo not given)	i	i	i	i
CCCCCc1cc(O)c2c(c1)OC(C)(C)[C@@H]1CCC(C(=O)O)=CC21 (stereo not given in full)	i	i	i	i
CC(C)(O)/C=C/C(=O)[C@](C)(O)C1[C@H](O)C[C@@]2(C)[C@@H]3CC=C4C(CC(=O)C(=O)C4(C)C)[C@]3(C)C(=O)C[C@@]12C (stereo not given in full)	i	i	i	i
O=C(CCl)c1cc(Br)c(Br)s1	i	i	i	i
COc1ccc(CNCc2nc3ccccc3c(=O)n2-c2ccc(F)cc2)cc1	i	i	i	i

All compounds of this part (from the top)
SMILES	STAT3 SMM	mut p53 SMM	c-Myc SMM	ID4 binder
CCCCC/C=C\C/C=C\C/C=C\C/C=C\CCCC(=O)NCCO	i	i	i	i
COc1cc(OC)c(OC)cc1CNC(C)C(O)c1ccccc1 (stereo not given)	i	i	i	i
CCCCCc1cc(O)c2c(c1)OC(C)(C)[C@@H]1CCC(C(=O)O)=CC21 (stereo not given in full)	i	i	i	i
CC(C)(O)/C=C/C(=O)[C@](C)(O)C1[C@H](O)C[C@@]2(C)[C@@H]3CC=C4C(CC(=O)C(=O)C4(C)C)[C@]3(C)C(=O)C[C@@]12C (stereo not given in full)	i	i	i	i
O=C(CCl)c1cc(Br)c(Br)s1	i	i	i	i
COc1ccc(CNCc2nc3ccccc3c(=O)n2-c2ccc(F)cc2)cc1	i	i	i	i
CC1CCC/C=C/C2CC(O)CC2C(O)/C=C\C(=O)O1 (stereo not given)	i	i	i	i
C=CC(C)(C)c1cc2cc3c(cc2oc1=O)O[C@H](C(C)(C)O)C3	i	i	i	x
COC1CC(OC2C(C)OC(OC3C(C)OC(OC4C(C)OC(O[C@H]5CC[C@@]6(C)C(=CC[C@]7(O)C6CC(OC(=O)c6ccccc6)[C@@]6(C)[C@]7(O)CC[C@@]6(O)C(C)=O)C5)CC4OC)CC3OC)CC2OC)OC(C)C1O (stereo not given in full)	i	i	i	x
CCN1CC2(COC(=O)c3ccccc3N3C(=O)CC(C)C3=O)CCC(OC)C34C5CC6C(OC)CC(O)(C5C6OC)C(O)(C(OC)C23)C14 (stereo not given)	i	i	i	i
C[C@H](N)C(=O)N[C@@H](C)C(=O)N[C@@H](Cc1ccccc1)C(=O)CCl	i	i	i	i
CCCN(CCC)[C@@H]1CCc2c(OC)cccc2[C@@H]1C	i	i	i	i
C/C(=C/C=C/[C@@H](C)C(=O)O)[C@H]1CN[C@H](C(=O)O)[C@H]1CC(=O)O	i	i	i	x
OCC1OC(n2cnc3cc(Cl)c(Cl)cc32)[C@@H](O)[C@H]1O (stereo not given in full)	i	i	i	i
C[C@@H]1CC([C@H](O)CC2CC(=O)NC(=O)C2)C(=O)[C@@H](C)C1 (stereo not given in full)	i	i	i	x
CN1CCc2cc(O)cc3c2[C@H]1Cc1ccc(O)c(O)c1-3	i	i	i	i
O=C(Cc1ccc(Cl)c(Cl)c1)N1CCCCC1CN1CCCC1 (stereo not given)	i	i	i	i
CN1CC(CNC(=O)OCc2ccccc2)CC2c3cccc4c3c(cn4C)CC21 (stereo not given)	i	i	i	x
CC(=O)O[C@H]1CC[C@@]2(C)C(=CC[C@@H]3[C@@H]2CC[C@]2(C)C(=O)CC[C@@H]32)C1	i	i	i	i
CCNC(=O)[C@H]1O[C@@H](n2cnc3c(N)ncnc32)C(O)[C@H]1O (stereo not given in full)	i	i	i	i
C[C@@H]1CN([C@@H](C)CO)C(=O)CCCn2cc(nn2)CO[C@H]1CN(C)C(=O)Oc1ccc2ccccc2c1	i	i	i	i
CCCC(C)n1[nH]c(=O)c2c1NC(=O)CSC2c1cccc([N+](=O)[O-])c1 (stereo not given)	i	i	i	i
N[C@H]1C[C@@H]1c1ccccc1	i	i	i	i
O=C(O)c1ccc2[nH]cc(CCCCN3CC=C(c4ccccc4)CC3)c2c1	i	i	i	i
O=C1C=C2C=C[C@@H]3C[C@@]2(O1)[C@H]1CCCCN31	i	i	i	x
O=C1C=C2C=C[C@@H]3CC2(O1)[C@H]1CCCCN31	i	i	i	i
COc1cc2c(cc1O)C[C@H]1c3c(cc(O)c(OC)c3-2)CCN1C	i	i	i	i
C[C@]12CC[C@H](O)C[C@H]1CC[C@@H]1[C@@H]2C[C@@H](O)[C@]2(C)[C@@H](C3=CC(=O)OC3)CC[C@]12O	i	i	i	i
C=C1[C@@H](C)[C@H]2[C@H](Cc3ccccc3)NC(=O)[C@]23[C@H](OC(C)=O)C=C[C@](C)(O)C(=O)[C@@H](C)C/C=C/[C@H]3[C@@H]1O	i	i	i	x
COc1cc2cc(c1Cl)N(C)C(=O)CC(OC(=O)C(C)C)C1(C)OC1C(C)C1CC(O)(NC(=O)O1)C(OC)/C=C/C=C(/C)C2 (stereo not given)	i	i	i	i

One compound at a time (already shown). Order of values: STAT3 SMM	mut p53 SMM	c-Myc SMM	ID4 binder
O=C(Cc1ccc(Cl)c(Cl)c1)N1CCCCC1CN1CCCC1 (stereo not given) as listed: i	i	i	i
CCNC(=O)[C@H]1O[C@@H](n2cnc3c(N)ncnc32)C(O)[C@H]1O (stereo not given in full) as listed: i	i	i	i
COc1cc2c(cc1O)C[C@H]1c3c(cc(O)c(OC)c3-2)CCN1C as listed: i	i	i	i
CN1CC(CNC(=O)OCc2ccccc2)CC2c3cccc4c3c(cn4C)CC21 (stereo not given) as listed: i	i	i	x

Only mut p53 SMM and STAT3 SMM, for some of the entries so far:
| compound | mut p53 SMM | STAT3 SMM |
| --- | --- | --- |
| CN1CC(CNC(=O)OCc2ccccc2)CC2c3cccc4c3c(cn4C)CC21 (stereo not given) | i | i |
| CC(=O)O[C@H]1CC[C@@]2(C)C(=CC[C@@H]3[C@@H]2CC[C@]2(C)C(=O)CC[C@@H]32)C1 | i | i |

Following part.
SMILES	STAT3 SMM	mut p53 SMM	c-Myc SMM	ID4 binder
COC1(CS(=O)c2ccccc2)CCN(CCc2c[nH]c3ccc(F)cc23)CC1 (stereo not given)	i	i	i	i
CCN(CC)C(=O)N[C@@H]1C[C@@H]2c3cccc4[nH]cc(c34)C[C@H]2N(C)C1	i	i	i	i
COc1cc2c(cc1OC)C13CCN(C)CC4=CCOC5CC(=O)N2C1C5C4CC3=O (stereo not given)	i	i	i	i
CN(C(=O)Cc1ccc(Cl)c(Cl)c1)C(CN1CCCC1)c1cccc(OCC(=O)O)c1 (stereo not given)	i	i	i	i
CC12CCC3C(CCC4C(=O)C(=O)CCC43C)C1CCC2=O (stereo not given)	i	i	i	i
c1cncc(C2=NCCC2)c1	i	i	i	i
CN1CC[C@@H]2CN3CCc4cccc(c43)[C@@H]2C1	i	i	i	x
Cc1cc(SCc2sc(-c3ccc(C(F)(F)F)c(F)c3)nc2C)ccc1OCC(=O)O	i	i	+	x
C[C@H]1CCC/C=C/C2C[C@H](O)C[C@H]2[C@H](O)/C=C\C(=O)O1 (stereo not given in full)	i	i	i	x
C[C@]12CC[C@H]3[C@@H](CC[C@]4(O)C[C@@H](O)CC[C@]34C=O)[C@@]1(O)CC[C@@H]2C1=CC(=O)OC1	i	i	i	i
C=C(C)[C@@H]1C2C(=O)O[C@H]1[C@H]1OC(=O)[C@@]34OC3C[C@]2(O)[C@@]14C (stereo not given in full)	i	i	i	x
Cc1c(C(=O)c2cccc3ccccc23)c2cccc3c2n1[C@@H](CN1CCOCC1)CO3	i	i	i	+
C[C@@H]1O[C@@H](O[C@@H]2C=C3CCC4C(CC[C@]5(C)[C@@H](c6ccc(=O)oc6)CC[C@]45O)[C@@]3(C)CC2)[C@H](O)[C@H](O)[C@H]1O (stereo not given in full)	i	i	i	i
Cc1ccc(N2C(=O)NC(=O)C(CCc3ccccn3)(Cc3cccs3)C2=O)cc1 (stereo not given)	i	i	i	i
CC(C)(O)c1cc(O)c2c(c1)CCC1C(C)(C(=O)O)CCCC21C (stereo not given)	i	i	i	i
COc1ccc2c(c1)[C@]13CCCC[C@@H]1[C@H](C2)N(C)CC3	i	i	i	i
CN(C)CCN(C)CCc1ccc(Cl)c(Cl)c1	i	i	i	i
CC1=NN=C(c2ccc(N)cc2)c2cc3c(cc2C1)OCO3	i	i	i	i
CO[C@H]1C[C@H](OC2CCC3(C)C4CCC5(C)C(C6=CC(=O)OC6)CC(OC(C)=O)C5(O)C4CC[C@H]3C2)O[C@@H](C)[C@@H]1O (stereo not given in full)	i	i	i	i
CCCCC/C=C\C/C=C\C/C=C\C/C=C\CCCC(=O)NCC(=O)O	i	i	i	i
CC(C)n1cnc2c(C(=O)N[C@H]3CN4CCC3CC4)cc(Cl)cc21	i	i	i	i
O=[N+]([O-])c1c(NCCO)ccc2nonc12	i	i	i	i
C=C1[C@@H](O)[C@]23C[C@@H]1[C@@H](O)C[C@H]2[C@@]12C4[C@@H]3C[C@@H]1[C@@](C)(CC[C@@H]2O)CN4CC	i	i	i	x
O=c1c2ccccc2nc(CSc2ncnc3nc[nH]c23)n1-c1ccccc1Cl	i	i	i	i
CC1=CC[C@@H]2[C@@H](C1)c1c(O)cc(CC#CCCCNS(C)(=O)=O)cc1OC2(C)C	i	i	i	i
Oc1cc2c(cc1O)C1c3ccccc3CNC1CC2 (stereo not given)	i	i	i	x
CCCCC/C=C/C/C=C/C/C=C/C/C=C/CCCC(=O)Nc1ccc(O)cc1	i	i	i	i
C/C=C1/CN2C3Cc4c([nH]c5ccc(O)cc45)C2(O)CC1C3CO (stereo not given)	i	i	i	x
COC(=O)CN1CN(c2ccccc2)C2(CCN(Cc3ccc4ccccc4c3)CC2)C1=O	i	i	i	i
Cc1ccc(OC(=O)N(C)C[C@@H]2OCc3cnnn3CCCC(=O)N([C@H](C)CO)C[C@H]2C)cc1	i	i	i	i
CC(=O)[C@H]1CC[C@H]2[C@@H]3CC[C@H]4C[C@H](O)CC[C@]4(C)[C@H]3C(=O)C[C@]12C	i	i	i	i
CC12CC[C@H]3C(CCC4(O)CC(O)CCC34O)C1(O)CCC2C1=CC(=O)OC1 (stereo not given in full)	i	i	i	i
CCCCc1ccc(C(=O)O)nc1	i	i	i	i
Cc1ccc(OC(=O)N(C)C[C@H]2OCc3cnnn3CCCC(=O)N([C@H](C)CO)C[C@@H]2C)cc1	i	i	i	i
CCn1cnc2c(Nc3cccc(Cl)c3)nc(N[C@@H]3CCCC[C@@H]3N)nc21	i	i	+	x
CCN1C[C@@]2(COC)C3[C@@H](OC)[C@H]4[C@@H]1[C@@]3(C1C[C@]3(O)[C@H](OC(=O)c5ccccc5)C1[C@]4(OC(C)=O)[C@@H](O)[C@H]3OC)[C@@H](OC)C[C@H]2O (stereo not given in full)	i	i	i	i
FC(F)(F)c1ccc2c(c1)N(CCCN1CCN(CCCl)CC1)c1ccccc1S2	i	i	i	x
C=C1[C@@H](C)[C@H]2[C@H](Cc3ccccc3)NC(=O)[C@]23OC(=O)/C=C\[C@H](O)CCC[C@@H](C)C/C=C/[C@H]3[C@@H]1O	i	i	i	x
CC(C)[C@@]1(NC(=O)[C@@H]2C[C@@H]3c4cccc5[nH]cc(c45)C[C@H]3N(C)C2)O[C@@]2(O)[C@@H]3CCCN3C(=O)[C@H](Cc3ccccc3)N2C1=O	i	i	i	i

Screening results from PubChem BioAssay.
